# High-throughput results from PubChem BioAssay.
# PINK1 expr mod = modulators of PINK1 expression; PINK1 immunofluorescence, high-content cytometry, 24 h; Potency, µM (series often up to 76.6 µM), for the others: top-dose activation (PINK1 increase), usual class: activators; hit rate 0.2% among 410,000; active = well fitted activation curve with a large enough effect; inconclusive = small, poorly fitted or top-dose-only effect; inactive = flat fitted curve, though single readings scatter; cell line not stated here;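 also: potency is read from the fitted curve at half-maximal effect; % of control where 0% means no effect; nearly all actives have a fitted effect of over 65% in size; a mitochondrial uncoupler was the plate control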
#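 Measures PINK1 amount and localization on or inside mitochondria by immunofluorescence. Stable cells get compounds at 5 concentrations for 24 hours before fixation and staining; CCCP controls included.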
# D2 agonist = human D2 receptor agonism in beta-arrestin assay. DiscoveRx PathHunter D2 beta-arrestin, luminescence, 90 min; 100% = 57 uM dopamine signal. hit rate 0.084% among 360,000. AID 624465. P14416. activation, % (test concentration not listed); in the data active = activation above about 40%; inconclusive = about 15% to 40%; inactive = below about 15%; also: compound concentration not given in the record; the text of the record calls up to 30% inactive
# Target sequence (P14416 whole entry, looked up): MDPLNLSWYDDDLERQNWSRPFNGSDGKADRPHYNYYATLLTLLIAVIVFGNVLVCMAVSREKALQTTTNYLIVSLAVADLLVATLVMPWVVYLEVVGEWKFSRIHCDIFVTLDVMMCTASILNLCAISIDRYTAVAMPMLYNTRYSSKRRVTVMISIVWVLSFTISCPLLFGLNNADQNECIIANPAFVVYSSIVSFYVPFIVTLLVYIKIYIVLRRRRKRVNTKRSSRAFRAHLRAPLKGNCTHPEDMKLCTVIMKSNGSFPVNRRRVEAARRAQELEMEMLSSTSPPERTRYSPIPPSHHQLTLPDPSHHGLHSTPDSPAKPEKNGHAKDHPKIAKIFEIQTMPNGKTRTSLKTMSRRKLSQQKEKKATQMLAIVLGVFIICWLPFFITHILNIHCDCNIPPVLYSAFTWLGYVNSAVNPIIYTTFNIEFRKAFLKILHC
#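 DiscoveRx PathHunter D2 beta-arrestin cells (2,100/well) attached overnight, then compound-stimulated 90 min at 37 C in HBSS/10 mM HEPES/0.1% Tween-20 buffer; beta-galactosidase complementation read by luminescence after 1 h at ambient temperature. Dopamine 57 uM final (EC100) as control.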
# Menin MLL FP FL = inhibitors of human menin-MLL interaction, wild-type MLL peptide; 290,000 tested, under 10 active; AID 1766; Fluorescence polarization, fluorescein-MLL peptide displacement from menin; FP activity change, % at 61.4 µM; inconclusive = falling polarisation curve, or a change in total fluorescence; inactive = total fluorescence flat and polarisation flat or rising; no compound was filed as active; the % refers to the polarisation; negative = inhibition;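 also: % of control where 0% means no effect; inhibitors lower the polarisation; unlabelled MLL peptide was the positive control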
# gsp antag = antagonists of gsp mutant (McCune-Albright syndrome). gsp-mutant cells, cAMP HTRF, 30 min; control for the full effect not named in the record. Potency, µM (top dose mostly 76.9 µM), inactives show at the highest dose activity change, negative = inhibition, usual class: inhibitors. hit rate 0.4% among 340,000; active = falling curve of any shape with a large fitted effect; inconclusive = falling curve, mostly with a smaller effect; inactive = flat or rising curve; cell line not stated here;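 also: intracellular cAMP measured with PDE inhibitor Ro 20-1724 present during compound exposure; potency is read from the fitted curve at half-maximal effect; % is scaled to controls: 0 for no effect and ±100 for the full control effect; nearly all actives have a fitted effect of over 65% in size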
#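 HTRF cAMP measurement after 30 min RT detection following 30 min, 37C compound treatment alongside […] (added as 300 uM solution) in G418-selected cells seeded at 2000/well and grown 16–24 h.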
# gsp ag = agonists of gsp mutant (McCune-Albright syndrome). gsp mutant cells, cAMP HTRF, 30 min; control for the full effect not named in the record. Potency, µM (highest dose often 76.9 µM), for the others: top-dose activation (cAMP increase), usual class: activators. hit rate 0.13% among 340,000; active = well fitted activation curve with a large enough effect; inconclusive = small, poorly fitted or top-dose-only effect, or another doubt; inactive = no such curve, though single readings can be large or run the other way; cell line not stated here;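 also: phosphodiesterase inhibitor Ro 20-1724 added with compounds to block cAMP breakdown; potency is read from the fitted curve at half-maximal effect; nearly all actives have a fitted effect of over 60% in size; about a fifth of the inactives were tested at one dose only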
#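 Cells in DMEM/10% FBS with G418 were pretreated with compounds in DMSO plus […] (300 uM stock) for 30 min at 37C. cAMP was measured by HTRF (cAMP-d2 plus anti-cAMP antibody-K) after 30 min at room temperature.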
# Sfp inh = inhibitors of Bacillus subtilis Sfp phosphopantetheinyl transferase; AID 1490; Biochemical Sfp PPTase activity, qHTS; Potency, µM, for the others: max response, negative = inhibition, actives largely listed as inhibitors; hit rate 3.5% among 310,000; Q9F4F7; active = well fitted inhibition curve with a large enough effect; inconclusive = small, poorly fitted or top-dose-only effect, or another doubt; inactive = no such curve, though single readings can be large or run the other way;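 also: the enzyme is Sfp with the accession as filed and its product quenches rhodamine fluorescence; potency is read from the fitted curve at half-maximal effect; 0% = enzyme reaction without inhibitor and -100% = no enzyme wells; top concentration of the series not given in the record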
#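 Fluorescence-quenching assay with 15 nM Sfp, 5 uM rhodamine-CoA and 12.5 uM BHQ-2-labelled ybbR peptide in pH 7.6 Hepes/MgCl2 buffer. Enzyme was pre-incubated with compound for 15 min at room temperature. Rate was taken from the 30-min fluorescence change (525/598 nm).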
# ClpP mod = qHTS Assay for Activators of ClpP; ATP-dependent Clp protease proteolytic subunit (Bacillus subtilis (strain 168)), P80244; purified B. subtilis ClpP, FRET peptide cleavage, 20 min; Potency, µM (top dose mostly 57.5 µM), inactives show at the top dose activity change, negative = active; hit rate 1.9% among 340,000; AID 651965, 2013; active = well fitted falling curve with a large enough effect; inconclusive = small, poorly fitted or top-dose-only effect; inactive = no such curve, though single readings can be large or run the other way; also: potency is read from the fitted curve at half-maximal effect; the source files actives as falling curves though it sought activators and does not explain the sign; nearly all actives have a fitted effect of over 65% in size; many hits overshoot -100%
# Target sequence (P80244 whole entry, looked up): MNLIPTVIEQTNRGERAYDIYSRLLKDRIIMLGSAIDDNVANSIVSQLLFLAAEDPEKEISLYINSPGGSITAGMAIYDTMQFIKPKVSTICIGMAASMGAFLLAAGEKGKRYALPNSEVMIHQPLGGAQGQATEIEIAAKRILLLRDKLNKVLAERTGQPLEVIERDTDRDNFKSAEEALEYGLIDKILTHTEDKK
#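 FRET quenching reversal measured ClpP activation: 10 microg/mL B. subtilis ClpP at pH 8 with the FRET-FV decapeptide, read at 430 nm after 320 nm excitation. The 20-min minus 0-min signal was scaled between DMSO/no-enzyme wells and ADEP (5.8 microM final).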
# * marks the source's active call; other numbers are inactive results; ? = inconclusive; · = no result given; & = joins results of further samples; [ ] = another dose, or the depositor's remark.
SMILES | gsp antag | Sfp inh | gsp ag | Menin MLL FP FL | ClpP mod | PINK1 expr mod | D2 agonist
COC(=O)CCCC1=CC2=C(c3ccccc3)C(=O)C(C)(OC(=O)C3CCCC3)C(=O)C2=CN1CCc1ccccn1 (configuration not stated) | -2% | -11% | · | -0.9[11.7 µM] | -2.8% | 2.1% | -4.3
CN(C)Cc1cc(C(C)(C)C)cc(N2CCOCC2)c1O | 16% | · | 12% | · | · | -2.9% | -0.9
CCN1C(=O)N[C@@H](c2ccc(Br)cc2)C(C(C)=O)=C1C | 11% | 3% | -5% | -7.7[11.7 µM] | 1.9% | 0.6% | -2.9
Cc1cc([N+](=O)[O-])nn1CC(=O)Nc1cccc2nonc12 | 13% | -26% | 62%[15.4 µM] | 9.3 | ? | -0.8% | 6.3
CC(C)(CNC(=O)C1CCCC1)CNC(=O)C1CCCC1 | 24% | 4% | -32%[inhibitor] | 4.3 | -0.2% | 2.1% | -1.4
COc1ccc(Cl)cc1N(CC(=O)N1CCN(Cc2ccccc2)CC1)S(C)(=O)=O | -3% | 0% | -10% | 2.5 | -1.2% | -1.0% | -1.4
Cc1ccc(C(=O)CCC(=O)OCC(=O)Nc2c(C)nn(-c3ccccc3)c2C)cc1 | -8% | · | -58%[inhibitor] | · | -2.3% | -0.8% | -2.8
O=C(CSc1ncn(-c2ccccc2)n1)Nc1nc2c(s1)CCCC2 | -14% | ? | 27% | 8.5 | -0.7% | ? | -1.0
COc1ccc(-n2ncc3c2CC(C)(C)CC3NC(=O)CN2CCOC2=O)cc1 (configuration not stated) | 5% | -3% | -57%[inhibitor] | · | -3.8% | 0.6% | 1.9
Cc1cc(C(=O)CCl)c(C)n1CC1COc2ccccc2O1 (configuration not stated) | · | 4% | -7%[15.4 µM] | 3.3 | · | -0.2% | 1.5
CN(C)c1ccc(/C=C/c2ccncc2)cc1 | -4% | 2% | -8%[15.4 µM] | ? | -1.9%&-2.0% | 2.0%&0.4% | 2.6
COCCNC(=O)c1ccc2c(Cl)c3c(nc2c1)CCC3 | 2% | 8% | -7%[15.4 µM] | 4.4 | 2.1% | -1.6% | -2.8
COc1ccc(N2C(=O)CC(Sc3nc4ccccc4s3)C2=O)cc1 (configuration not stated) | -12% | 7% | -5%[15.4 µM] | -0.9 | · | 0.6% | -2.9
O=S(=O)(c1cccs1)N1CCN(CCc2ccccc2)CC1 | 9% | 11% | -21% | -1.6 | -1.8% | -1.5% | -2.9
C/C(=N\O)c1sc(-c2ccccc2)nc1C | 2% | 16% | -194%[inhibitor] | -2.1 | 1.9% | -1.2% | -4.6
C#CCOCCOCCOCCNc1nc(N2CCN(C(=O)Cn3cc(CCO)nn3)CC2)nc(N2CCN(C(=O)Cn3cc(CCO)nn3)CC2)n1 | 7% | · | · | · | -0.7% | 1.8% | 0.1
COC(=O)c1ccccc1NC(=O)CN(c1cc(OC)ccc1OC)S(C)(=O)=O | 14% | -11% | -32%[inhibitor] | -3.5 | 1.5% | · | -2.1
COc1ccc(C(C)(C)NC(=O)C2CCC(=O)N(C3CCCC3)C2)cc1OC (configuration not stated) | 5% | 1% | -24% | · | 0.8% | 1.0% | 1.6
CCN(CC)S(=O)(=O)c1cc(C)c(C)cc1Br | -49% | -2% | -26% | 1.0 | -2.9% | -0.2% | -1.7
Cc1cccc(CSCc2nnc(N)s2)c1 | 4% | ? | -2% | ? | -2.8% | 2.7% | -2.5
COc1cccc(CNC(=O)COc2ccc(C(=O)c3ccccc3)cc2)c1 | -10% | -3% | 27%[15.4 µM] | -0.8 | -10% | 9.2% | -1.5
NC(=O)CC(NC(=O)c1ccc(Br)cc1)c1ccc(N2CCC(Cc3ccccc3)CC2)c([N+](=O)[O-])c1 (configuration not stated) | 2% | -5% | 26% | -0.1 | -3.0% | 1.0% | -0.3
O=C(O)C1CCN(c2ccccc2[N+](=O)[O-])CC1 | -11% | 21% | 0%[15.4 µM] | -2.9 | 0.1% | -1.8% | -2.5
Cc1ccc2c(C)c(C(=O)Nc3c(C)n(C)n(-c4ccccc4)c3=O)oc2c1 | 0% | 2% | 4% | -0.8 | -1.2% | 0.4% | 2.6
NN1C(=O)c2cccc3c(C(=O)O)ccc(c23)C1=O | 9% | 6% | -2% | -1.0 | -2.3% | -0.4% | -5.8
CC(=O)N1CCc2cc(S(=O)(=O)NC(Cc3ccccc3)C(=O)Nc3cc(C)ccn3)ccc21 (configuration not stated) | 2% | 7% | -69%[inhibitor] | -0.3 | -1.6% | 4.5%[38.3 µM] | 2.2
CC(OC(=O)CCN=C1NS(=O)(=O)c2ccccc21)C(=O)Nc1ccc(S(N)(=O)=O)cc1 (configuration not stated) | 7% | · | 3% | · | -3.0% | -0.3% | -2.3
CCn1cc(C(=O)O)c(=O)c2cc(F)c(N3CCN(C(=S)NC(=O)c4ccc(Br)cc4)CC3)cc21 | -42% | 4% | -12%[15.4 µM] | -4.8 | · | ? | -2.1
CCO/N=C/C1=C(O)C(C(=O)OC)C(C)(C)CC1=O (configuration not stated) | -5% | ? | 1%[15.4 µM] | 6.4 | · | 0.0% | 1.5
Cc1cc(F)ccc1C(O)c1ncc(-c2cccc(OCc3ccccc3)c2)[nH]1 (configuration not stated) | · | · | · | · | 1.1% | 4.5% | -4.0
COc1ccc(CCNC(=O)C(=O)NCC2CCNCC2)cc1OC | -3% | 8% | ? | 3.0 | 0.8% | 1.5% | -4.1
Cc1ccc(CN2CCS(=O)(=O)CC2)o1 | 4% | 11% | 12% | -4.8 | · | 0.6% | 0.3
CC(Oc1ccc2c(-c3ccccc3)cc(=O)oc2c1)C(=O)N1CCOCC1 (configuration not stated) | ? | · | 15% | · | -6.4% | 2.9% | 2.5
O=S(=O)(c1ccc(Br)cc1)N1CCN(Cc2ccco2)CC1 | -1% | 5% | -3% | -0.9 | -1.8% | 1.2% | 0.9
Cc1cccc(CN2CCN(Cc3nc4c(s3)CCCC4)CC2CCO)n1 (configuration not stated) | 3% | 10% | -46%[inhibitor] | -7.1 | -1.7% | 0.5% | -4.5
FC(c1nc2ccccc2[nH]1)C(F)(F)F (configuration not stated) | 10% | 1% | 3%[15.4 µM] | 0.6 | 0.0% | 6.0% | -5.1
CN(C)c1ccc(C2N(C(=O)N3CCOCC3)CCN2S(=O)(=O)c2ccccc2)cc1 (configuration not stated) | 6% | 23% | -2% | 0.9 | -0.9% | 3.2%[38.3 µM] | -5.1
O=C(O)c1ccccc1Sc1c([N+](=O)[O-])cc(C(F)(F)F)cc1[N+](=O)[O-] | 0% | -8% | 6%[15.4 µM] | -1.8 | · | 0.7% | ?
CCNC(=O)C(=O)Nc1ccc2c(c1)N(S(=O)(=O)c1cccs1)CCC2 | -18% | · | 12% | · | 1.0% | 13% | 4.6
CCCc1ccc2oc(C(=O)N3CCNC(=O)C3CC(=O)OC)c(C)c2c1 (configuration not stated) | 0% | -4% | 0% | · | 0.1% | 0.5% | -1.8
CC(OC(=O)C1CCCO1)C(=O)NC1CCCC1 (configuration not stated) | 0% | 10% | 24% | -1.2 | -1.2% | -1.9%[38.3 µM] | -2.9
COc1ccc(Br)c(/C=N/NC(=O)COc2ccc(-c3ccccc3)cc2)c1 | -20% | 5% | 28% | 0.0 | -1.7% | -0.8% | -1.2
C=CCSc1ccccc1C(=O)Nc1ncn[nH]1 | 4% | -5% | 11% | -1.3 | -1.4% | 2.1% | -6.5
O=C(CC1OC(=O)c2ccccc21)Nc1cc(Cl)ccc1N1CCCC1 (configuration not stated) | 0% | · | 21%[15.4 µM] | · | · | 12% | -5.0
COc1cc2ccnc(C=NO)c2cc1OC | · | · | 18% | · | 4.7% | -0.9% | -3.3
CCCCc1ccc(N=N/C(C(=O)Nc2ccccc2OC)=C(/C)O)cc1 | 13% | 2% | -61%[inhibitor] | -1.4 | -3.3% | 3.3% | -4.0
COc1ccc(-c2ccc(CN3C(C)C(=O)N(Cc4cn(CC5CCCCC5)nn4)CCS3(=O)=O)cc2)cc1 (configuration not stated) | · | · | -38%[inhibitor] | · | -5.7% | -0.5% | -1.2
O=C(NC1CCCc2ccccc21)C1CCN(S(=O)(=O)c2ccccc2F)CC1 (configuration not stated) | -7% | -13% | 3% | -0.5 | -18% | 1.5% | -1.9
COCCn1c(N)c(NCc2ccccc2)c(=O)[nH]c1=O | 1% | -6% | 0%[15.4 µM] | ? | · | 0.9% | -1.6
COc1ccc(CC(=O)N/N=C/C=C/c2ccc3c(c2)OCO3)cc1OC | 4% | 1% | -7% | 0.6 | -16% | -0.3% | -2.8
CC(C)C(=O)Nc1cccc(NC(=S)NC(=O)c2ccc(Cl)cc2)c1 | ? | -14% | -2% | 14 | -1.4% | 0.2%[38.3 µM] | -6.6
COc1cccc(CNc2nc(NC(C)C)nc3ccsc23)c1OC | · | · | · | · | -27% | 20% | -4.7
O=c1[nH]nc(Cc2ccc3ccccc3n2)c2ccccc12 | 1% | 1% | -31%[inhibitor] | -0.4 | -0.2% | 0.5% | -1.4
CCN(CC)CCn1c(N)c(S(=O)(=O)c2ccccc2)c2nc3ccccc3nc21 | -27% | 0% | -31% | -0.3 | 3.7% | -0.8% | -6.6
OC(CNCCc1ccc(Cl)cc1)COc1ccc2ccccc2c1 (configuration not stated) | 10% | 32µM* | 6%[15.4 µM] | -5.4 | · | -2.3% | -1.0
CCC1(C)Cc2c(sc3nnn(Cc4ccccc4Cl)c(=O)c23)CO1 (configuration not stated) | -27% | -4% | -27% | 3.9 | -0.5% | 5.5%[38.3 µM] | -0.3
Cn1nc(C(=O)NCC(=O)Nc2ccc(F)c(F)c2F)c2ccccc2c1=O | -3% | · | -5% | · | -0.7% | 0.2% | -3.5
COC(=O)CNC(=O)C(C)(C)Oc1ccc(Cl)cc1 | 9% | -2% | ? | 2.9 | 0.9% | 0.7% | -4.0
COc1ccc(C2N(C(=O)N3CCOCC3)CCN2S(=O)(=O)c2ccc(C)cc2)cc1 (configuration not stated) | -5% | 19% | -6% | 4.8 | 0.1% | 1.9%[38.3 µM] | 2.9
